Sfp inh: Sfp phosphopantetheinyl transferase inhibition; Biochemical Sfp PPTase activity, qHTS; Potency, µM, inactives show max response, negative = inhibition, usual class: inhibitors; 3.5% of 310,000 active; active = well fitted inhibition curve with a large enough effect; inconclusive = small, poorly fitted or top-dose-only effect, or another doubt; inactive = no such curve, though single readings can be large or run the other way;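 also: the enzyme is Sfp with the accession as filed and its product quenches rhodamine fluorescence; potency is read from the fitted curve at half-maximal effect; 0% = enzyme reaction without inhibitor and -100% = no enzyme wells; top concentration of the series not given in the record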
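Fluorescence-quenching assay with 15 nM Sfp, 5 uM rhodamine-CoA and 12.5 uM BHQ-2-labelled ybbR peptide in pH 7.6 Hepes/MgCl2 buffer. Enzyme was pre-incubated with compound for 15 min at room temperature. Rate was taken from the 30-min fluorescence change (525/598 nm).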
Six1-Eya2 inh: inhibitors of human Six1/Eya2 interaction. AlphaScreen GST-Six1/His-Eya2 binding, biochemical; stronger effect = lower value; control for the full effect not named in the record. activity change, % (test concentration not listed). AID 651725. 0.56% of 360,000 active. Q15475+O00167; in the data active = activity change below about -65%; inconclusive = about -30% to -65%; inactive = above about -30%; also: % is scaled to controls: 0 for no effect and ±100 for the full control effect; compound concentration not given in the record
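GST-Six1 + His-Eya2 (5X stock: 250/500 nM); Tris pH 8.0, 300 mM NaCl, 0.05% BSA, 0.02% Tween 20; GSH donor/Ni acceptor beads; 1 h 37 °C dark; AlphaScreen readout.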
TRPV1 potentiator: enhances activation of the human vanilloid receptor TRPV1; Q8NER1; TRPV1-expressing cells, Fluo-8 calcium influx, capsaicin EC20 potentiation; host cell line not named in the record; control for the full effect not named in the record; potentiation, % at 8.33 µM; 0.02% of 320,000 active; AID 540277; active means potentiation above 80%; inconclusive means 30% to 80%; inactive means below 30%; also: 0% is about no effect
Target sequence (Q8NER1 whole entry, looked up): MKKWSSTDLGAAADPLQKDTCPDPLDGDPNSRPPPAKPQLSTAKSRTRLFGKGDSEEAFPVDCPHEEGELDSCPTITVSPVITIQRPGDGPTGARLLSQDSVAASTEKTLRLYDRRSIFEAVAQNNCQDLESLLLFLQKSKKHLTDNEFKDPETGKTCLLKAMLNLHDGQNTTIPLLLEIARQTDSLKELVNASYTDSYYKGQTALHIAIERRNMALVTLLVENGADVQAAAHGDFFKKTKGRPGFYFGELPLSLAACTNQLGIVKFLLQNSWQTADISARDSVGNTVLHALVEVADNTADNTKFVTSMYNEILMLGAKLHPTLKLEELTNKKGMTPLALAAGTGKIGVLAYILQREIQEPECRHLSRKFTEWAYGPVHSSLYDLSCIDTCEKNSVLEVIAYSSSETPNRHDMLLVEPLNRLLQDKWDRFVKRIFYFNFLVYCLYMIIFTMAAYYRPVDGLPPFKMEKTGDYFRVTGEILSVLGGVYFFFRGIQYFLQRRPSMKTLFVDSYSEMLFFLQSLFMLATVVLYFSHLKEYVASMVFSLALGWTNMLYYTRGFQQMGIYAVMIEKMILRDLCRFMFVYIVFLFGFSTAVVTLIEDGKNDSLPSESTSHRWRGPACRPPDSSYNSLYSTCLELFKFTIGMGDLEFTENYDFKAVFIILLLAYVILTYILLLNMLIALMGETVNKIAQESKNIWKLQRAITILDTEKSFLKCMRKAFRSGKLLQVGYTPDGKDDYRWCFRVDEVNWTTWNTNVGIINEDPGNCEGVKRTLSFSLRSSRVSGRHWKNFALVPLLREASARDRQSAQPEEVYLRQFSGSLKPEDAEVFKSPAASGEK
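Cells expressing TRPV1 were dye-loaded with Fluo-8 and read kinetically: 10 s baseline, 3 min after compound (agonist portion), then 2 min after EC20 capsaicin (allosteric enhancer portion). Calcium-bound dye fluorescence at 480/520 nm.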
D2 agonist: human D2 receptor agonism in beta-arrestin assay; activation, % (concentration not given with the values); DiscoveRx PathHunter D2 beta-arrestin, luminescence, 90 min; 100% = 57 uM dopamine signal; P14416; 0.084% of 360,000 active; in the data active = activation above about 40%; inconclusive = about 15% to 40%; inactive = below about 15%; also: compound concentration not given in the record; the text of the record calls up to 30% inactive
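Agonist mode: compounds alone added to overnight-plated D2 PathHunter cells for 90 min at 37 C, with 57 uM final dopamine (EC100) defining full response. Beta-arrestin recruitment detected by chemiluminescent reagent, read after 1 h at ambient temperature.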
CtBP-E1A inh: inhibitors of CtBP/E1A interaction | AlphaScreen GST-E1A/His-CtBP binding, 1536-well; stronger effect = lower value; control for the full effect not named in the record | activity change, % (concentration not given with the values) | 0.49% of 340,000 active | AID 651724; in the data active means activity change below about -65%; inconclusive means about -30% to -65%; inactive means above about -30%; also: % is scaled to controls: 0 for no effect and ±100 for the full control effect
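AlphaScreen with 125 nM GST-E1A and 125 nM His-CtBP (5X stocks) in Tris pH 8.0, 300 mM NaCl, BSA, Tween 20, TCEP. Compounds preincubated 2 h at 37 deg C, then glutathione donor/nickel acceptor beads added for 1 h at 37 deg C in dark.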
PINK1 modulator: changes PINK1 expression; PINK1 immunofluorescence, high-content cytometry, 24 h; Potency, µM (titrated, usually from 76.6 µM), for inactives: at the top dose activation (PINK1 increase), hits mostly activators; 0.2% of 410,000 active; AID 624263; active = well fitted activation curve with a large enough effect; inconclusive = small, poorly fitted or top-dose-only effect; inactive = flat fitted curve, though single readings scatter; cell line not stated here;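 also: potency is read from the fitted curve at half-maximal effect; % of control where 0% means no effect; nearly all actives have a fitted effect of over 65% in size; a mitochondrial uncoupler was the plate control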
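Fluorescence from anti-PINK1 antibody, together with nuclear and cell stains, was scanned on a laser-scanning cytometer. Before staining, stable-line cells were incubated 24 hours with compounds at 5 concentrations; primary antibody 12 h at 10 degrees C.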
D2 PAM: potentiates the human D2 dopamine receptor allosterically | DiscoveRx D2 beta-arrestin cells, luminescence, 90 min; 100% = 57 uM dopamine signal | AID 624464 | potentiation, % (no concentration beside the values) | 0.23% of 360,000 active; active = potentiation of 50% or more; inconclusive = 30% to 50%; inactive = 30% or less;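 also: compound concentration not given in the record; tested on top of an EC20 dose of dopamine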
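PathHunter beta-arrestin assay in DiscoveRx D2 cells. Compounds were added with an EC20 of dopamine (50 nM final) for 90 min at 37 deg C. Luminescence was read 1 h after detection reagent, with 57 uM dopamine as the EC100 control.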
An asterisk follows results filed as active; ? = inconclusive; . = no result given; & = joins results of further samples; [ ] = another dose, or the depositor's remark.

SMILES	Sfp inh	Six1-Eya2 inh	TRPV1 potentiator	D2 agonist	CtBP-E1A inh	PINK1 modulator	D2 PAM
CC(=O)c1ccc(C#CC(C)(C)O)s1	3%	11	8	0.3	0	-2.6%	6
CN(C)/C(Cn1cncn1)=C1/N=C(c2ccccc2)OC1=O	4%	13	26	3.0	.	-1.0%	-11
COc1ccc2cc(C(c3nnnn3C(C)(C)C)N3CCSCC3)c(=O)[nH]c2c1 (centres undefined)	7%	2	2	-1.1	9	.	5
CC1CCCN(Cc2csc(N)n2)C1 (centres undefined)	8%	3	10	-2.0	-19	0.5%	-3
COCCN=C1Sc2nc3ccc(C)cc3cc2CN1Cc1cccs1	22µM*	-3	-7	-2.8	0	4.0%	-13
COC(=O)[C@]12CCCCC=C1N(Cc1cccc3ccccc13)C(=O)[C@H](CC(=O)N1CCCCC1)C2	.	-11	.	.	-1	5.1%	.
COc1ccc(S(=O)(=O)N(C)CC(=O)Nc2ccccc2SC)cc1Cl	-12%	-1	-4	-2.5	8	-1.5%	-11
O=C(CCc1ccccc1)NCCc1cccs1	12%	5	-19	-4.5	2	1.0%	-6
Cc1ccc(-c2cc(C(=O)NCc3ccc4c(c3)OCO4)no2)cc1	6%	-13	?	-0.3	-4	-0.7%[38.3 µM]	0
Cc1ccc(NC(=O)CCN2CCOCC2)cc1C	-18%	4	4	-0.5	8	2.4%	-2
CCOP(=O)(OCC)C(Nc1ccc(C(=O)O)cc1)c1ccccc1 (centres undefined)	0%	-1	0	-6.2	-23	2.7%	-12
O=C(COc1ccc(Nc2ccccc2)cc1)OCC(=O)N1CCCCC1	-23%	-11	-11	-2.8	-5	-0.3%	5
CC(C)c1ccc(/C=C2\Oc3c(ccc(O)c3CN3CCN(C)CC3)C2=O)cc1	-6%	-7	24	-2.3	-1	4.2%	-8
O=C(NNC(=O)c1ccccc1-n1cccc1)c1ccc(Cl)cc1Cl	13%	-5	6	-2.9	-17	0.1%	-4
CNC(=O)CN(c1ccc(OC)cc1)S(=O)(=O)c1ccc(F)cc1	9%	24	-2	-4.6	19	-2.9%	4

Reformatted comma-delimited: 2 of the compounds above
Molecule,Sfp inh,Six1-Eya2 inh,TRPV1 potentiator,D2 agonist,CtBP-E1A inh,PINK1 modulator,D2 PAM
CC(=O)c1ccc(C#CC(C)(C)O)s1,3%,11,8,0.3,0,-2.6%,6
CN(C)/C(Cn1cncn1)=C1/N=C(c2ccccc2)OC1=O,4%,13,26,3.0,.,-1.0%,-11

The list continues:
SMILES	Sfp inh	Six1-Eya2 inh	TRPV1 potentiator	D2 agonist	CtBP-E1A inh	PINK1 modulator	D2 PAM
COc1ccc(NC(=O)C2CCCN(CCCc3ccccc3)C2)cc1OCC(C)C (centres undefined)	-2%	5	-14	13	.	-1.1%	-47
C[C@@H]1[C@H](O)C[C@@]23COC(=O)C2=CCCC3[C@@]1(C)CCC1COC(=O)C1 (some centres undefined)	.	1	-7	-0.4	3	0.8%	-1
C=CCn1c(C)cc(C(=O)CSc2nc3ccccc3o2)c1C	-27%	-11	18	-0.1	-11	2.2%	-8
Cc1ccccc1CSCC1Nc2ccc(C(=O)NCCc3ccccc3)cc2NC1=O (centres undefined)	.	-6	.	-6.6	1	-0.3%	-11
C/C(=N/Nc1ccnc2cc(Cl)ccc12)c1ccc(O)cc1	.	7	2	4.3	5	8.8%	-17
O=C(NCCN1CCOCC1)c1ccc(Cl)c(S(=O)(=O)N2CCOCC2)c1	5%	0	1	-1.9	6	-0.7%	0
CC1(C(=O)NCc2cccc3ccccc23)CCN1C(=O)Cc1ccc(-c2ccccc2)cc1 (centres undefined)	.	-3	.	3.6	-2	0.0%	-11
CCc1ccccc1NCC(=O)Nc1ccc(Cl)c(C(F)(F)F)c1	7%	2	-6	-1.0	-2	?	-16
Nc1nc(SCC(=O)Nc2cc(-c3ccccc3)nn2-c2ccccc2)n[nH]1	15%	4	4	-0.6	15	-4.1%[38.3 µM]	-18
COc1ccc(OCC(=O)N(Cc2ccc(C)o2)C2CCS(=O)(=O)C2)cc1 (centres undefined)	-2%	0	-12	0.5	2	-1.1%&-0.5%	-4
O=c1cc(N2CCOCC2)c2ccccc2o1	7%	-1	-9	-0.8	10	.	-2
CC1CCCCC1NC(=S)Nc1ccc(Cl)cc1Cl (centres undefined)	9%	20	-4	-0.3	19	16%	-5
Cc1[nH]c2ccccc2c1C(c1ccncc1)N1CCC(C)CC1 (centres undefined)	-4%	-13	?	2.5	-9	5.0%	-1
CCOc1ccc2ccccc2c1CNc1nnnn1CC	18%	2	-19	-0.6	-3	-1.3%	-2
Cc1onc(-c2ccccc2)c1C(=O)OCC(=O)c1ccc[nH]1	.	-2	.	1.3	0	3.3%	4

Three compounds already listed, arranged by count of non-hydrogen atoms, rising:
SMILES	Sfp inh	Six1-Eya2 inh	TRPV1 potentiator	D2 agonist	CtBP-E1A inh	PINK1 modulator	D2 PAM
CC1CCCN(Cc2csc(N)n2)C1 (centres undefined)	8%	3	10	-2.0	-19	0.5%	-3
Cc1ccc(NC(=O)CCN2CCOCC2)cc1C	-18%	4	4	-0.5	8	2.4%	-2
COCCN=C1Sc2nc3ccc(C)cc3cc2CN1Cc1cccs1	22µM*	-3	-7	-2.8	0	4.0%	-13

(more compounds)
SMILES	Sfp inh	Six1-Eya2 inh	TRPV1 potentiator	D2 agonist	CtBP-E1A inh	PINK1 modulator	D2 PAM
C=CCOn1c(=O)c(-c2ccc(OC)c(OC)c2)[n+]([O-])c2ccccc21	56µM*	-5	-13	2.3	-5	-1.1%	7
CC(=O)CSc1ncnc2sc3c(c12)CCCC3	0%	13	-7	?	8	-0.4%	-4
Cc1cccc(NC(=O)C2CCN(S(=O)(=O)c3c(C)noc3/C=C/c3ccco3)CC2)n1	30%	-2	1	2.1	-2	1.4%	-5
CC(=O)c1ccc(NC(=O)CC2Nc3cccc4cccc(c34)NC2=O)cc1 (centres undefined)	50µM*	-15	9	0.1	.	3.2%&0.6%	-17
Cc1ccc(C(=O)NC(=O)OCCn2c(C)cnc2[N+](=O)[O-])cc1	24%	8	2	-2.3	2	-0.8%	-3
CN1CCN(S(=O)(=O)c2cc(C(F)(F)F)ccc2Cl)CC1	14%	7	-11	0.9	0	-0.6%	-15
COC(=O)C1=NN(c2cccc3ccccc23)C2C(=O)N(c3ccccc3OC)C(=O)C12 (centres undefined)	1%	18	-8	-4.9	0	-3.1%	-3
Cc1ccc(S(=O)(=O)NC2CCCCC2)cc1	.	3	4	6.6	9	1.8%	4
COc1ccc(Cn2c(=O)oc3ccc(C)cc32)cc1OC	18%	16	-1	-2.6	11	-2.2%	-10
Cc1ccc(C)c(NC2=CC(=O)CC(C)(C)C2)c1C#N	?	-12	-12	-3.4	9	-1.1%	-26
CCOC(=O)CN1C(=O)C(Sc2n[nH]c(-c3ccccc3)n2)CCc2ccccc21 (centres undefined)	8%	-3	24	0.4	8	-0.8%[38.3 µM]	-30
O=C(Nc1cccc(Cl)c1)Nc1nc(-c2ccc(Cl)cc2)cs1	9%	-2	7	3.3	-3	8.4%	-3
COC(=O)Cn1c(=O)c2c(n(Cc3ccccc3)c1=O)N/C(=C/c1ccc(Br)cc1)C2=O	5%	3	6	-2.2	-8	1.1%	-9
O=[N+]([O-])c1ccc(CNc2cccc(F)c2)s1	1%	-9	?	11	-5	0.6%	-3
Cc1ccc(NC(=O)Cn2c(=O)n(Cc3ccco3)c(=N)c3c4c(sc32)COC(C)(C)C4)cc1	5%	-6	29	-8.4	-16	3.5%	9
COC(=O)[C@@]12CCCCN1[C@H](c1ccc(SC3CCCCC3)cc1)[C@H]1C(=O)N(C)C(=O)[C@H]12	.	-5	?	-5.5	4	?	-4
Cc1c(NC(=O)Nc2ccc([N+](=O)[O-])cc2)c(=O)n(-c2ccccc2)n1C	6%	5	-26	-0.3	8	10.0%	0
O=C(CN1C(=O)S/C(=C/c2cccs2)C1=O)N1CCCC1	.	6	-9	4.6	1	4.5%	11
O=C(NCc1ccco1)c1nc2nc(-c3cccs3)cc(C(F)(F)F)n2n1	-29%	-20	3	0.1	?	-1.4%	-9
CCCN(CC(=O)Nc1ccc(OC)c(OC)c1)CC(=O)Nc1ccc(F)c(F)c1F	-5%	0	8	-5.9	0	3.2%	-35
Cc1ccc(C)c(S(=O)(=O)N2CCCC2CNC(=O)C(=O)NCc2ccccn2)c1 (centres undefined)	.	0	-22	-0.9	-17	2.4%	2
COc1cccc(Oc2nc(N)ncc2[N+](=O)[O-])c1	-4%	4	-8	0.8	-1	-1.4%	-2
Cc1ccc(N=C2NC(=O)/C(=C/c3cccn3C)S2)cc1	7%	-7	-8	-6.4	.	?	-34
CN1C(=O)CC(N2CCN(c3ccc(Cl)c(Cl)c3)CC2)C1=O (centres undefined)	-5%	2	-8	0.0	-11	0.1%	-5
COc1ccc(NC(=O)Nc2ccc(Cc3ccncc3)cc2)cc1OC	-8%	-16	?	-0.7	-10	-0.8%	-1
CC(=O)Nc1ccc(NC(=O)COc2ncnc3ccccc23)cc1	11%	-3	-2	-0.8	.	1.2%	9
COc1ccc(-c2oc3c(c2C(=O)OCCCO)C(OCCCCCO)CCC3)cc1 (centres undefined)	.	-5	.	.	-2	0.1%	.
Cc1cc(NC(=O)CS(=O)(=O)c2cn(Cc3cccc(C(F)(F)F)c3)c3ccccc23)no1	.	-2	.	-1.9	-4	8.4%	0
Nc1c(Cl)cc(NC(=O)c2ccccc2C(=O)O)cc1Br	1%	7	0	1.3	-13	-2.3%	3
CCc1ccc(-c2nnn(Cc3nc4ccccc4s3)n2)cc1	?	21	-9	0.2	31	-4.9%[38.3 µM]	-4
Oc1ccc(N=Nc2n[nH]c(-c3ccccc3)n2)cc1	18%	-13	8	-9.4	-7	1.7%	-14
Cc1ccccc1Oc1ncnc2sccc12	12%	6	1	-3.6	4	-1.7%	0
COc1cccc(-c2nc(CS(=O)CC(=O)NC3CCCC3)c(C)o2)c1 (centres undefined)	-2%	-3	18	-2.6	4	5.1%	-7
O=C(O)COc1ccc(/C=C/c2nc(-c3ccccc3O)n[nH]2)cc1	4%	-3	1	0.2	.	0.5%	-16
Cc1cccc(C)c1NC(=O)N1CCN(C2CCCCC2)CC1	-6%	-1	-5	-1.1	-1	1.0%	-1
COc1ccc(/C=C(\NC(=O)c2ccccc2)C(=O)NNC(=O)CCN2CCOCC2)cc1	-4%	4	7	-4.5	7	0.5%	-4
O=C(Nc1ccccc1)N(c1ccccc1)C1C=CS(=O)(=O)C1 (centres undefined)	6%	4	6	-4.4	-1	-1.3%	-10

Compound activity from PubChem.
